Screening data: PubChem, several laboratories
CBX7 inh: inhibitors of human CBX7 binding to H3K27me3 peptide. AlphaScreen His6-CBX7 / biotin-H3K27me3 peptide binding; active compounds read low. normalised signal (fraction of DMSO) (concentration not given with the values). 66,000 tested, 1.1% active. AID 1224903; in the data active = normalised signal below about 0.5;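 also: 100 nL library stock added to about 20 µL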
Target sequence (O95931 whole entry, looked up): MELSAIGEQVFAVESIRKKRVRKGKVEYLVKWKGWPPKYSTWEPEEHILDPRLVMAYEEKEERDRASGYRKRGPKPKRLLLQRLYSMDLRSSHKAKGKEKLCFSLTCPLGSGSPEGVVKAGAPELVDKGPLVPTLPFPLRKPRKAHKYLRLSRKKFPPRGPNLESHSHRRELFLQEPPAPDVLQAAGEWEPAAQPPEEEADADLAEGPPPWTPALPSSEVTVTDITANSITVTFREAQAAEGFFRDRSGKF
CBX7 inh z-score: also measured in CBX7 inh; calls as there; z-score; measured here: z-score of CBX7 signal; some inactives read as strong as hits; reference of the scale not given here;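 same signal on another scale; lower means less binding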
* hit, by the source's call; & = joins results of further samples. Some of the compounds tested; count on the stated rates, not on these rows.

SMILES	CBX7 inh	CBX7 inh z-score
O=C(NCc1ccccn1)c1ccc(CNc2c(NC3CCCC3)c(=O)c2=O)cc1	0.9	-0.85
CC1CCCN(CCCNS(=O)(=O)c2ccc3c(c2)CCN3C(=O)C2CC2)C1 (configuration not stated)	1.1	1.7
Cc1ccc(S(=O)(=O)Nc2nnc(C(F)(F)F)s2)cc1	0.98	-0.43
Oc1ccccc1Cn1c(-c2ccccc2O)nc2ccccc21	0.8	-3.2
COc1ccc(CCNC(=O)c2cc(-c3ccc(O)cc3)on2)cc1OC	1	1.6
Cc1ccccc1-c1nc(CS(=O)(=O)CC(=O)NC2CCCCC2C)c(C)o1 (configuration not stated)	1	0.7
CCCCCn1c(=N)n(CCOc2ccc(OC)cc2)c2ccccc21	0.88	-2.6
Cc1nc2ccccc2n1Cc1ccc(Cl)cc1	0.94	-1.1
COc1ccc2c(c1)c(=O)c(S(=O)(=O)c1ccccc1)cn2CC(=O)Nc1ccc(F)cc1	0.94	-0.86
Cc1ccc2oc(-c3ccc(NC(=O)c4ccc(C)c(Cl)c4)cc3)nc2c1	0.96	-0.38
Cc1cccc(C)c1NC(=O)C1(NC(=O)c2cnccn2)CCCCC1	1.1	1
c1ccc(-c2noc(CSc3nnc(-c4cccs4)n3-c3ccccc3)n2)cc1	0.94	-1.4
COc1cc2c(C(=O)N(C)c3cccc(Cl)c3)cn(CC(C)C)c(=O)c2cc1OC	0.98	-0.018
Cc1cc2ccccc2c(=O)n1CC(=O)NCc1ccccn1	0.92	-2.1
Cc1oc(-c2ccccc2Cl)nc1CS(=O)(=O)CC(=O)NCc1ccccc1	0.98	-0.45
CC(C)NC(=O)c1cc(-c2ccc(Cl)cc2)on1	1.1	0.98
COc1ccc(NC(=O)CSc2nccn2-c2ccccc2)cc1	0.87	-2.7
CCCCOc1ccc(C(O)(CCC)C(CN2CCN(c3ccccc3F)CC2)c2ccccc2)cc1 (configuration not stated)	1.1	0.69
CCc1ccc(NS(=O)(=O)c2ccc3c(c2)n(C)c(=O)c(=O)n3C)cc1	1.2	1.8
CC(=O)Nc1cccc(Oc2ccc3c(c2)C(=O)N(c2ccc(C)c(Cl)c2)C3=O)c1	1	-0.001
Nc1n[nH]c(CC(=O)N(c2ccccc2)C2(C(=O)Nc3ccccc3)CCCCC2)n1	0.85	-2.7
COc1ccc(-n2nc(C(=O)Nc3cc(C)on3)c3ccccc3c2=O)cc1	1.1	2.1
CCC1=Nc2cc(C(=O)NC3CCCc4ccccc43)ccc2Sc2ccc(C)cc21 (configuration not stated)	0.91	-4.8
FC(F)(F)c1cccc(Nc2c3c(nc4ccc(Cl)cc24)CCC3)c1	0.96	-0.056
COc1ccccc1Nc1c2c(nc3ccc(Cl)cc13)CCCC2	1.1	0.16

Three compounds already listed, ordered by SMILES length, low to high.
SMILES	CBX7 inh	CBX7 inh z-score
Cc1nc2ccccc2n1Cc1ccc(Cl)cc1	0.94	-1.1
Cc1cccc(C)c1NC(=O)C1(NC(=O)c2cnccn2)CCCCC1	1.1	1
Nc1n[nH]c(CC(=O)N(c2ccccc2)C2(C(=O)Nc3ccccc3)CCCCC2)n1	0.85	-2.7

The results go on.
SMILES	CBX7 inh	CBX7 inh z-score
Cn1c2c(c3cc(Oc4ccccc4)ccc31)C(=O)CCC2	1.6	4.3
Cc1ccc(Nc2nnc(-c3cc4ccccc4oc3=O)s2)cc1	0.94	-1.2
CCCCNc1c(N2CCCC(C(=O)OCC)C2)c(=O)c1=O (configuration not stated)	0.96	-0.95
C=CCNC(=O)c1cc(=O)[nH]c2ccc(S(=O)(=O)N3CCCCC3)cc12	1.1	2.2
O=C(CSc1nnc(CNC(=O)c2c(F)cccc2Cl)o1)NCc1ccc(F)cc1	0.99	-0.22
O=c1cc(NCC2CCCO2)[nH]c(=O)n1-c1ccc(Cl)cc1 (configuration not stated)	1	0.034
COc1ccc(NC(=O)c2cnc(N3CCN(c4ncccn4)CC3)c3ccccc23)cc1Cl	1	-0.02
COc1cc(OC)cc(-c2nc3nc(C)c(CCC(=O)Nc4ccc5c(c4)OCCO5)c(C)n3n2)c1	0.94	-0.25
CCc1ccc(-c2nc(CSCC(=O)NCc3ccc4c(c3)OCO4)c(C)o2)cc1	0.66	-2.2
Cc1nn(-c2nc(-c3ccccc3)cc(C(F)(F)F)n2)c(C)c1Cl	1.1	3.8
Cc1cccc(C)c1Nc1c(-c2ccc(N3CCOCC3)cc2)nc2cnccn12	1.2	2.9
CC(C)c1ccc(NC(=O)Cn2cnc3scc(-c4ccccc4)c3c2=O)cc1	0.87	-3.2
CC(=O)N1CCc2cc(S(=O)(=O)NC(CC(C)C)C(=O)N3CCCC3)ccc21 (configuration not stated)	0.95	-1.1
CCC(C(=O)Nc1ccccc1OC)n1c(SCc2ccc(C)cc2)nc2ccncc21 (configuration not stated)	1	0.24
O=C1CCCc2c1[nH]c1ccc(OCc3ccccc3)cc21	0.94	-1
CCOC(=O)c1c(CN2CCCC2)n(-c2ccccc2)c2cc(Br)c(O)cc12	0.89	-3.9
CCCCN(C)C(=O)CCC(=O)Nc1ccc2nc(N3CCOCC3)cc(C)c2c1	1.1	0.19
Cc1ncc(CO)c2cc(C(=O)Nc3ccc(Cl)cc3)c(=O)oc12	1	0.72
COc1ccc(SCCc2ccc3cc(-c4ccccc4)cn3c2)cc1	0.85	-1.8
O=C(O)c1ccccc1-c1ccccc1C(=O)Nc1cccc(-c2nc3ccccc3o2)c1	0.84	-2
CCN1CCN(c2cc(C)c3cc(NC(=O)c4c(F)cccc4F)ccc3n2)CC1	0.98	-0.17
CC1CCN(c2c(NCc3ccc(C(=O)NC4CCCCC4C)cc3)c(=O)c2=O)CC1 (configuration not stated)	1	1.3
Cc1ccc2c(c1)N(CCC(=O)NCCN1CCOCC1)C(=O)CO2	0.98	-0.38
CC(C)=C1C2C=CC1C1C(=O)N(c3cc(C)ccc3C)C(=O)C21 (configuration not stated)	0.91	-1.4
Fc1ccc(-c2nnn(Cc3ccccc3Cl)n2)cc1	1.1	2.3
SMILES	CBX7 inh	CBX7 inh z-score
Cn1cc(CCCC(=O)NC2CCCC2)c2ccccc21	0.93	-0.51
CCCCN(C(=O)c1cc2c(s1)-c1ccccc1OC2)C1CCN(C(C)=O)CC1	0.97	-0.43
O=C(Nc1cccc(NC(=O)c2ccccc2Cl)c1)c1cc2ccccc2o1	1	1.1
O=C1CN(C(=O)CN2CCCC2)C(c2ccccc2)c2cc(Br)ccc2N1 (configuration not stated)	1	-0.2
COc1ccc(Nc2nc(C)cc(C)c2C#N)c(OC)c1	1	0.54
Cc1ccc(C2CC(=O)c3cnc(NCc4ccccc4)nc3C2)cc1 (configuration not stated)	1	1.2
Cc1c(C(=O)O)oc2ccc(S(=O)(=O)N(C)Cc3ccccc3)cc12	1.1	1.3
CCCCNC(=O)CCc1c(C)nc2c(-c3ccc(F)cc3)c(C)nn2c1C	1	0.085
CCOC(CNC(=O)c1ccc2c(c1)ncn2-c1ccc(F)c(F)c1)OCC	0.99	-0.32
O=C(CCn1nc(-c2ccc(Cl)cc2)ccc1=O)NCCCN1CCCC1=O	1	1.1
CN(CCC#N)C(=O)c1ccc2c(c1)N(Cc1ccccc1)C(=O)c1ccccc1S2(=O)=O	1.3	5.2
Cc1cccc(NS(=O)(=O)c2cnc[nH]2)c1C	1.1	0.33
Cc1cccc(-n2c(C)nc3c(cnn3-c3ccccc3Cl)c2=O)c1	0.86	-2.2
COc1ccc(C2=NOC(C(=O)NCC3CCCO3)C2)cc1OC (configuration not stated)	1	0.69
C=CCN1C(=O)N(c2ccc(F)cc2)C(=O)C1CC(=O)Nc1ccc(C(=O)OCC)cc1 (configuration not stated)	1	0.9
Cc1ccc2c(c1)C(c1ccccc1)N(C(=O)c1ccc(OC(C)C)cc1)CC(=O)N2 (configuration not stated)	0.86	-0.19
CCOC(=O)c1cnc2c(C)cc(C)cc2c1Nc1ccc(N(C)C)cc1	0.33*	-6.5*
CCCNC(=O)Cn1cnc2sc(C(=O)Nc3ccc(C)c(F)c3)c(C)c2c1=O	1.1	0.9
CC1CCN(C(=O)c2cc(Cl)ccc2Nc2ccccc2)CC1	1.6	2
Cc1oc(-c2ccc(Cl)cc2)nc1CN1CCC(C(=O)NC2CCCC2)CC1	1	0.69
Fc1ccc(-c2sc(Nc3ccc(Br)cc3)nc2C(F)(F)F)cc1	1.1&1.2	3.2&4.9
Cc1ccc(N2C(=O)CC(N3CCC(C(N)=O)(N4CCCCC4)CC3)C2=O)cc1Cl (configuration not stated)	0.99	-0.37
COc1ccc(-c2[nH]c(-c3ccc(C)cc3)nc2SCC(=O)NCC2CCCO2)cc1 (configuration not stated)	0.91	-0.38
Cc1ccc(N2C(=O)c3ccccc3C2Nc2ccc(Br)cc2)nc1 (configuration not stated)	0.82	-2.5
Cc1cccc(CCNC(=O)c2cc(=O)[nH]c3ccc(Br)cc23)c1	1	0.4

Taken from above.
CCC(C(=O)Nc1ccccc1OC)n1c(SCc2ccc(C)cc2)nc2ccncc21 (configuration not stated) in CBX7 inh has 1
O=C(O)c1ccccc1-c1ccccc1C(=O)Nc1cccc(-c2nc3ccccc3o2)c1 in CBX7 inh has 0.84

(next part)
SMILES	CBX7 inh	CBX7 inh z-score
Cc1ccc(-c2nnc(Nc3ccc(OC(F)(F)Cl)cc3)c3ccccc23)cc1	1	0.3
CCC(=O)NC(C)c1nc2ccccc2n1Cc1cc(C)ccc1C (configuration not stated)	0.98	-0.65
Cc1ccc(CNc2ccc3nnc(-c4ccc(F)cc4)n3n2)cc1	1	0.82
COc1ccccc1-c1nc(-c2ccccc2)no1	1	0.43
Cc1ccc(Nc2c(-c3ccc(N4CCOCC4)cc3)nc3ncccn23)cc1C	1	0.99
O=C(COc1nsnc1N1CCOCC1)Nc1cccc(Cl)c1	1.1	0.65
COc1ccc(OC)c(C2=NOC(C(=O)NCCN3CCOCC3)C2)c1 (configuration not stated)	1	0.16
COCCn1c(=O)[nH]c2cc(C(=O)NCCc3ccc(Cl)cc3)ccc2c1=O	1	1.2
Cc1cc(NC(=O)CSc2ncnc3sc4c(c23)CCCC4)no1	1.1	0.11
CNC(=O)C1CCCN(c2nnc(-n3cccc3)s2)C1 (configuration not stated)	0.99	-0.15
CCN(CC)S(=O)(=O)c1ccc(NC(=O)c2cc3c(s2)-c2ccccc2OC3)cc1	1.4	5
CCC(C)NC(=O)C1CCN(c2nn3c(=O)cc(C)nc3s2)CC1 (configuration not stated)	0.99	-0.34
CCOC(=O)c1cnc2c(Cl)cccc2c1Nc1ccc(C(=O)OC)cc1	1	0.01
Cc1ccc(NC(=O)c2cc(C)nn2-c2ccccc2)c(Cl)c1	1	1.1
CCOc1ccc(OCC)c(NC(=O)CC2Oc3ccccc3NC2=O)c1 (configuration not stated)	1.1	0.42
COc1c2ccoc2nc2c(OC)c(OC(C)=O)ccc12	1	0.52
COc1c(Cl)ccc(Cl)c1C(=O)Nc1ccc(OCc2ccccc2)cc1	1	0.02
CCC(=O)Nc1ccc(-c2nnc(-c3ccccc3)o2)cc1	1.1	1.4
CCn1c(SCC(=O)Nc2cccc(C)c2)nnc1-c1c[nH]c2ccccc12	1.1	0.92
O=C(CN1C(=O)COc2ccccc21)NCCCN1CCOCC1	1	1.2
COC(=O)c1nnn(-c2nonc2N)c1CN1CCC(C)CC1	1	1.5
Clc1c(CSc2nc3ccccc3s2)nc2ncccn12	0.76&1.1	-2.6&0.24
O=C(Cn1ncc2c1-c1ccccc1OC2)N1CCN(c2cccc(Cl)c2)CC1	1	0.32
CC(=O)Nc1ccc2nc(NC(=O)c3ccc(NC(=O)C4CCCCC4)cc3)sc2c1	1	-0.18
CCc1nnc(NC(=O)COc2c(C)ccc(C)c2C)s1	1.1	0.46
SMILES	CBX7 inh	CBX7 inh z-score
Cc1ccc(S(=O)(=O)C2(C(=O)NC(C)c3ccccc3)CC2)cc1 (configuration not stated)	0.99	-0.38
CCOc1ccc2nc(N3CCC(C(=O)NC4CCCCC4C)CC3)sc2c1 (configuration not stated)	1	0.065
COc1ccccc1C(=O)Nc1ccc(O)c(-c2nc3ccccc3s2)c1	1.1	1.4
COc1cc(-c2nc(-c3ccccn3)no2)cc(OC)c1OC	0.85	-3
Cc1ccccc1NC(=O)CC1Nc2ccccc2NC1=O (configuration not stated)	1	0.44
CC1CCCN(CCCNC(=O)C2CC(=O)N(C3CCCC3)C2)C1 (configuration not stated)	1.1	2.1
COc1ccc(CCC(=O)Nc2c(C)nn(Cc3ccccc3Cl)c2C)cc1	0.79	-0.29
Cc1cccc(NC(=O)c2cc(-c3ccccc3)nc3ccccc23)c1C	1.5	8.8
Cc1cccc(C2(c3cccc(C)c3)CC2C(=O)Nc2ccc(C#N)cc2)c1 (configuration not stated)	0.98	-0.21
CCCOc1ccc(-c2ccc(-c3noc(-c4cccnc4)n3)cc2)cc1	1.1	0.12
CCN(CCCNC(=O)Cn1nc(-c2ccc(Cl)cc2)ccc1=O)c1cccc(C)c1	0.84	-8.1
Cc1ccccc1-c1nc2cc(NC(=O)c3ccc(Cl)cc3)ccc2o1	0.96	-0.51
CC(C)CN(CCNC(=O)c1csc2c1CCCCC2)CC(C)C	1.1	2.6

Structural class, the entries above containing an aryl thioether with sulfur outside any ring
SMILES	CBX7 inh	CBX7 inh z-score
c1ccc(-c2noc(CSc3nnc(-c4cccs4)n3-c3ccccc3)n2)cc1	0.94	-1.4
COc1ccc(NC(=O)CSc2nccn2-c2ccccc2)cc1	0.87	-2.7
O=C(CSc1nnc(CNC(=O)c2c(F)cccc2Cl)o1)NCc1ccc(F)cc1	0.99	-0.22
CCC(C(=O)Nc1ccccc1OC)n1c(SCc2ccc(C)cc2)nc2ccncc21 (configuration not stated)	1	0.24
COc1ccc(SCCc2ccc3cc(-c4ccccc4)cn3c2)cc1	0.85	-1.8
COc1ccc(-c2[nH]c(-c3ccc(C)cc3)nc2SCC(=O)NCC2CCCO2)cc1 (configuration not stated)	0.91	-0.38
Cc1cc(NC(=O)CSc2ncnc3sc4c(c23)CCCC4)no1	1.1	0.11
CCn1c(SCC(=O)Nc2cccc(C)c2)nnc1-c1c[nH]c2ccccc12	1.1	0.92
Clc1c(CSc2nc3ccccc3s2)nc2ncccn12	0.76&1.1	-2.6&0.24
